# GLA inh pH 4.5: qHTS Assay for Inhibitors of Human alpha-Galactosidase at pH 4.5; Alpha-galactosidase A (Homo sapiens), P06280; purified enzyme, 4-MU-alpha-Gal fluorescence, pH 4.5; activity change, negative = inhibition, % at 105 µM; 230,000 tested, under 10 active; inconclusive = small, poorly fitted or top-dose-only inhibition, or a rising curve; inactive = flat fitted curve, though single readings scatter; no compound was filed as active;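 also: 0% = full activity with enzyme and -100% = basal without enzyme; dose as in the result columns while the protocol names 77 µM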
# Target sequence (P06280 whole entry, looked up): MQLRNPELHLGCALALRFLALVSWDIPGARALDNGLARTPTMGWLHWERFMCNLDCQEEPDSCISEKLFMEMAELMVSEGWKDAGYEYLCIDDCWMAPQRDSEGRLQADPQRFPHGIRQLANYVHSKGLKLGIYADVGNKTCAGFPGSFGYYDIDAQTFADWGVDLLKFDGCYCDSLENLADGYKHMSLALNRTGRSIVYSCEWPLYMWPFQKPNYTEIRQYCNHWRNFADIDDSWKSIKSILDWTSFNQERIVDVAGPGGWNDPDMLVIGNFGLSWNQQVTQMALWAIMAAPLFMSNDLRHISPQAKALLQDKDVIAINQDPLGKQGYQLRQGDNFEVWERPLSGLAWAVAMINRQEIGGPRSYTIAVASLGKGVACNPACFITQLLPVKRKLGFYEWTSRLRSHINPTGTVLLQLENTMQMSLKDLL
# Rango release inh: qHTS Assay for Inhibitors of RanGTP induced Rango (Ran-regulated importin-beta cargo) - Importin beta complex dissociation; Snurportin-1 (Homo sapiens) + GTP-binding nuclear protein Ran (Homo sapiens) + Importin …; Biochemical FRET Rango-importin beta, RanGTP-induced dissociation; Potency, µM (top dose mostly 46.1 µM), inactives show at the highest dose activity change, negative = inhibition; actives 0.071% (n = 340,000); active means falling FRET ratio curve, often poorly fitted, with flat reads before Ran was added; inconclusive means other falling curves, or compound fluorescence or quenching; inactive means flat or rising ratio curve;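 also: potency is read from the fitted curve at half-maximal effect; % of control where 0% means no effect; nearly all actives have a fitted effect of over 45% in size; -100% = wells without RanGTP and RCC1; the record marks most hits as doubtful in a second field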
#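 FRET read at 45 min, room temperature: inhibitors block the CFP/YFP signal rise when RanGTP (0.6 uM Ran, 2 mM GTP, 0.2 uM RCC1) frees Rango (0.1 uM) from importin beta (0.25 uM). Pre-read after 5 min compound exposure flags interference.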
# Rango complex inh: qHTS Assay for Inhibitors of Rango (Ran-regulated importin-beta cargo) - Importin beta complex formation | Importin subunit beta-1 (Homo sapiens), Q14974 | Potency, µM (doses to about 92.2 µM), inactives show at the top dose inhibition of complex formation | Rango CFP/YFP FRET sensor + importin beta, 45 min | actives 0.031% (n = 340,000); active = rising FRET ratio curve, often small or poorly fitted; inconclusive = mostly compound fluorescence or quenching in the first reads; inactive = flat curves in all reads;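 also: potency is read from the fitted curve at half-maximal effect; 0% = DMSO wells and 100% = buffer wells lacking importin beta; nearly all actives have a fitted effect of over 15% in size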
#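 Inhibition scored from the CFP 486 nm/YFP 530 nm FRET ratio 45 min after adding 0.125 microM importin beta to 50 nM Rango biosensor preincubated 5 min with compound (room temperature, PBS with DTT, Tween-20, BSA). No-importin wells as positive control.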
# miR-21 reporter: qHTS Assay for Modulators of miRNAs and/orActivators of miR-21. 340,000 tested, under 10 active. Potency, µM (highest dose often 38.3 µM), for inactives: at the highest dose reporter change, positive = more light. AID 2288, 2010. HeLa miR-21 FLuc reporter, luciferase, 48 h; active = well fitted rising curve with a large enough effect; inconclusive = small, poorly fitted or top-dose-only effect; inactive = no such curve, though single readings can be large or run the other way;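 also: % of control where 0% means no effect; miR-21 action dims this reporter so a rising signal means less miR-21 action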
#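 HeLa cells stably expressing CMV-driven firefly luciferase with a downstream miR-21 binding sequence, endogenously expressing miR-21, were treated with titrations (up to about 40uM final) for 48 hours at 37 degree Celsius. Luciferase luminescence was read after lysis.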
# The depositor's hits bear a star; ? = inconclusive; . = not tested or not shown; & = joins results of further samples. This is a subset. The share of hits here may be higher or lower than overall.
SMILES,GLA inh pH 4.5,Rango release inh,Rango complex inh,miR-21 reporter
CC(C)C[C@H]1CNC(=O)C(=O)N1CC1CCN(CC2CCC(C(C)(C)C)CC2)CC1 (some centres undefined),.,-10%,0.2%,.
COc1ccccc1CNC(=O)C(NS(=O)(=O)c1ccc2c(c1)OCCO2)C(C)C (centres undefined),-2,-8%,0.8%,0%
COc1ccc2c(c1)sc1nc(-c3ccccc3)cn12,-1,5%,-0.7%,?
COc1cccc(OC)c1C(=O)Nc1nc2cc3c(cc2s1)OCO3,1,13%,0.4%,-6%
O=C(c1nc[nH]c1C(=O)N1CCN(c2ccccc2)CC1)N1CCN(c2ccccc2)CC1,.,3%,0.2%,.
COc1ccc(CS(=O)(=O)CC2(O)CCN(C(=O)c3cccc(C(F)(F)F)c3)CC2)cc1,6,-11%,-1.6%,0%
O=S(=O)(c1ccc(-c2csc(Nc3ccc(F)cc3)n2)cc1)N1CCCC1,3,2%,?,9%
CC(=O)c1ccc(OCC(O)CN2CCN(Cc3ccc4c(c3)OCO4)CC2)cc1 (centres undefined),4&2,-4%&28%,0.0%&3.4%,1%&0%
CCC(C)c1ccc(C(C)NC(=S)NC2CCCCC2)cc1 (centres undefined),.,6%,0.9%,28%
Fc1ccc(-c2ccnc3nc(N4CCN(c5ccccc5)CC4)nn23)cc1,-13,3%,0.0%,-6%
CC1Sc2ccc(S(=O)(=O)N3CCC(C(=O)NCc4ccccc4)CC3)cc2NC1=O (centres undefined),.,-4%,-0.8%,6%
O=C1c2cccc3c([N+](=O)[O-])c(O)cc(c23)C(=O)N1Nc1ccccc1,-3,-16%,12%,1%
O=c1c2ccccc2c(C=Nc2cccc(S(=O)(=O)NCc3ccco3)c2)c(O)n1-c1ccc(Cl)cn1,2,?,?,-1%
O=C1CCCC/C=C\C[C@H](CC(=O)N(CCO)Cc2ccccc2)C(=O)NCCO1,.,41%,11%,.
CC1(C2CC2)NC(=O)NC1=O (centres undefined),0,-8%,0.9%,1%
Cc1cc(NC(=O)CCCn2nc(C)c([N+](=O)[O-])c2C)no1,-6,-12%,0.1%,3%
COc1cccc(CNC(=O)C2Cc3ccccc3CN2C(C)=O)c1 (centres undefined),.,-8%,4.5%,-2%
CCCCCC(=O)NC(NC(=S)NC1CCS(=O)(=O)C1)C(Cl)(Cl)Cl (centres undefined),3,2%,-4.0%,-1%
Cc1cc(C)cc(-n2c(C)nc3cc(C(=O)O)ccc32)c1,8,0%,-3.4%,-9%&-17%
C=CC[n+]1c(/C=C2\C=Cc3cc(C)ccc3N2CC)ccc2ccccc21,-1,-5%,2.6%,?
COc1cc(-c2noc(CCCC(=O)NCc3ccco3)n2)cc(OC)c1OC,-20,7%,-2.6%,-3%
O=C(Oc1coc(CSc2nnc(NC(=O)C3CC3)s2)cc1=O)c1ccccc1,2,-1%,?,-19%
CC1CN(C(=O)c2cc3cc(Br)ccc3[nH]2)CC(C)O1 (centres undefined),.,6%,2.6%,-8%
Cc1cccc(OCC(=O)N(Cc2ccco2)C2CCS(=O)(=O)C2)c1 (centres undefined),.,-2%,-0.5%,0%

# Part of the list above, reformatted.
compound: COc1cc(-c2noc(CCCC(=O)NCc3ccco3)n2)cc(OC)c1OC
  GLA inh pH 4.5: -20
  Rango release inh: 7%
  Rango complex inh: -2.6%
  miR-21 reporter: -3%

compound: O=C(Oc1coc(CSc2nnc(NC(=O)C3CC3)s2)cc1=O)c1ccccc1
  GLA inh pH 4.5: 2
  Rango release inh: -1%
  Rango complex inh: ?
  miR-21 reporter: -19%

compound: CC1CN(C(=O)c2cc3cc(Br)ccc3[nH]2)CC(C)O1 (centres undefined)
  GLA inh pH 4.5: .
  Rango release inh: 6%
  Rango complex inh: 2.6%
  miR-21 reporter: -8%

compound: Cc1cccc(OCC(=O)N(Cc2ccco2)C2CCS(=O)(=O)C2)c1 (centres undefined)
  GLA inh pH 4.5: .
  Rango release inh: -2%
  Rango complex inh: -0.5%
  miR-21 reporter: 0%

# (continued)
SMILES,GLA inh pH 4.5,Rango release inh,Rango complex inh,miR-21 reporter
CCc1cc2c(cc3c(=O)n(CC(=O)NCCCN4CC(C)CC(C)C4)ncn32)s1 (centres undefined),-1,2%,1.7%,?
CN(CC(=O)O)Cc1oc(CO)cc(=O)c1O,.,7%,0.7%,.
COc1cc(/C=C(\C#N)C(=O)c2c(C)[nH]c3ccccc23)cc(OC)c1OC,-8,4%,-2.0%,-4%
O=C(/C=C/c1ccc2c(c1)OCCCO2)c1ccccc1O,9,13%,-0.8%,-67%
Cc1ccc(-c2nnc(SCC(=O)N/N=C/c3c(C)nn(-c4ccccc4)c3C)n2-c2ccccc2)cc1,-27,?,-2.4%,-8%
O=[n+]1c2c(n([O-])c3ccccc31)CCCC2,3,15%,2.5%,-2%
COc1cc(NC(=O)COC(=O)CNC(=O)C2CCCCC2)cc(OC)c1,.,-10%,0.7%,.
Cc1ccc(S(=O)(=O)N2CCCOC2CNC(=O)C(=O)NCCCn2ccnc2)cc1 (centres undefined),1,0%,-0.8%,-1%
Cn1c(=O)c(=O)n(C)c2cc(N3CCOCC3)c(NS(=O)(=O)c3ccc([N+](=O)[O-])cc3)cc21,.,7%,-0.1%,1%
CCCNC(=O)NC(=O)CSc1ccc2c(c1)OCCO2,9,16%,0.3%,-2%
CC(=O)C1=C(C)NC(C)=C(C(C)=O)C1c1ccccc1,7,1%,-3.4%,0%
COc1cc(-c2nc(C(=O)NC3CCCCC3)cc3c2[nH]c2ccccc23)cc(OC)c1OC,.,5%,0.5%,18%
Cc1ccc(C2=NCCn3nc4cc([N+](=O)[O-])ccc4c32)cc1,.,-7%,?,.
Cc1ccccc1Cn1c(=O)sc2ccccc2c1=O,-12,-15%,2.2%,4%
COc1cccc(C(=O)OCC(=O)c2ccc(Br)s2)c1OC,.,6%,0.7%,.
CC(C(=O)OCC(=O)c1ccc(Br)cc1)N1C(=O)C2C3C=CC(C3)C2C1=O (centres undefined),.,22%,0.0%,-1%
O=C(CSc1nc2sccc2c(=O)[nH]1)N1CCN(c2ccccc2)CC1,.,-1%,-5.4%,-6%
COc1ccc(-c2[nH]c3ccccc3c2SCCNC(=O)c2ccccc2)cc1,4,12%,2.9%,20%
CN(C)C(=O)CN1CCN(C(=O)CCl)CC1,-1,0%,3.1%,21%
CC(C)CN1CCN(Cc2cc3ccccc3[nH]2)CC1CCO (centres undefined),.,?,?,-9%
Cc1ccc(C)c(CN2C(=O)c3ccccc3S(=O)(=O)c3ccc(C(=O)N4CCN(C)CC4)cc32)c1,.,18%,0.6%,5%&-4%
Fc1cccc(Cl)c1CNn1cn[nH]c1=S,-1,-3%,2.3%,-1%
O=C(CSc1ccc([N+](=O)[O-])cc1)OCC(=O)N1CCCC1=O,.,-1%,-4.2%,.
O=C(NCc1ccccc1Cl)c1cccc(NC2=NC3CS(=O)(=O)CC3S2)c1 (centres undefined),.,0%,-1.4%,-2%
Clc1ccc(SCc2nc3ccccc3[nH]2)cc1,6,-6%,?,-35%
CN(C(=O)c1cccc(NC(=O)Cc2ccc(NC(=O)C3CCN(C(=O)C4CCC4)CC3)cc2)c1)C1CCC1,.,1%,-2.1%,.
O=S(=O)(NCc1cccs1)NCc1ccccc1F,1,-13%,-1.9%,-2%
COc1ccccc1N1CCN(C(=O)c2oc3ccccc3c2C)CC1,5,4%,-3.7%,2%
CCC1CCCCN1C(=O)CCc1nnc(C2CCCCC2)o1 (centres undefined),-2,-10%,0.5%,-45%
CCc1nn(CC(=O)NCCN2CCN(C)CC2)c(=O)c2cc3occc3n12,-2,-9%,3.0%,1%
O=C(Cc1coc(-c2ccc(F)cc2)n1)NCc1ccccc1,0,-3%,?,-8%
O=C(NCCCN1CCCC1=O)Nc1cc(Cl)ccc1Cl,.,6%,0.9%,-13%
COc1ccc2c(=O)c(-c3ccc4c(c3)OCO4)coc2c1,-8&1,18%,0.3%,-60%
CC(=O)c1ccc(N(CC(=O)NCCc2ccccc2)C(=O)c2csnn2)cc1,.,2%,-0.4%,-18%
Cc1cc(OCC(O)CN2C(C)CCCC2C)ccc1C(C)C (centres undefined),-1,-6%,4.8%,-11%
O=C(CN(C(=O)CCC(=O)Nc1ccccn1)C1CCCC1)NCc1ccccc1,.,-5%,-3.6%,0%
CCC(=O)Oc1ccc2oc(=O)cc(C)c2c1,-6,-5%,0.5%,-8%
O=c1c2cc3c(=O)n(-c4ccccc4O)c(=O)c3cc2c(=O)n1-c1ccccc1O,5,-1%,-0.3%,-9%
COC(=O)c1ccc(NC(=O)CN2C(=O)CNC2=O)cc1,7,12%,-0.2%,8%
O=C(O)CN1C(=O)/C(=C/c2ccccc2Br)Oc2ccccc21,.,8%,-2.5%,-1%
CCN(CC)c1ccc(C(=O)NC(=S)N2CCN(Cc3ccc4c(c3)OCO4)CC2)cc1,-1,-5%,?,-10%
CN(C(=O)CCOc1ccccc1)c1c(N)n(Cc2ccccc2)c(=O)[nH]c1=O,.,12%,-2.3%,.
CC(C)c1cc(-c2cc(C(=O)Nc3ccccc3)on2)nc(NC2CCCC2)n1,.,5%,-0.8%,.
Brc1ccc(/C=N/Nc2ccccn2)cc1,-4,10%,?,-59%
COc1ccccc1CNC(=O)CN1C(=O)c2cccc(N)c2C1=O,.,?,?,-50%
C/C(=N\Nc1cc(C(F)(F)F)ccc1Cl)c1ccccc1O,1,-11%,0.2%,0%
Cc1ccc(-n2cc(CN3CCN(c4ccccn4)CC3)c(-c3ccc(F)cc3)n2)cc1,1,2%,?,-8%
CC1CC(C)CN(S(=O)(=O)c2ccc3c(c2)n(C)c(=O)c(=O)n3C)C1 (centres undefined),-4,3%,6.4%,8%
O=C(Cc1ccc(S(=O)(=O)N2CCCCC2)cc1)NCc1ccc(Cl)cc1,.,0%,-4.0%,.
COc1ccc(C(=O)NC(=S)Nc2nnn(C)n2)cc1,-4,-6%,0.0%,-8%
CCCCS(=O)(=O)N1CCCC(C(=O)Nc2ccc(Cl)cn2)C1 (centres undefined),.,-21%,-5.2%,13%
O=C(Oc1ccccc1C(=S)N1CCOCC1)c1ccccc1,.,0%,-0.7%,4%
COc1ccc(CSc2nnc(Cc3sc(-c4ccccc4)nc3-c3ccccc3)o2)cc1,-7,12%,-0.7%,-5%
Cc1ccc(C(C(=O)NCc2ccco2)N(C(=O)CNC(=O)c2cccs2)c2ccc(C)cc2)cc1 (centres undefined),-18,-10%,-2.3%,-4%
Cc1ccc(NC(=O)CN(C)C(=O)COc2ccccc2-c2ccccc2)cc1,.,19%,-0.6%,.
O=C(CCCc1nc(-c2ccccc2)no1)NC1CCCCC1,.,-2%,-2.7%,-4%
COC(C(=O)Nc1ccccc1C(=O)N1CCOCC1)c1ccccc1 (centres undefined),.,-13%,0.2%,2%
CCCC(O)(c1ccc(CC)cc1)C(CN1CCOCC1)c1ccccc1 (centres undefined),.,18%,-0.7%,22%
CSc1nc2c(c(=O)[nH]1)C(c1ccc(Cl)cc1)CC(=O)N2 (centres undefined),-11,-1%,-0.4%,0%
CCOC(=O)c1c(NC(=O)CNC2CCCCC2)sc(C)c1C,-4,3%,1.1%,2%
# (list continues)
SMILES,GLA inh pH 4.5,Rango release inh,Rango complex inh,miR-21 reporter
NC(=S)N=Nc1c(O)[nH]c2ccc(F)cc12,-19,-15%,-0.3%,-1%
COc1ccc(-c2oc(=O)c3cc(OC)c(OC)cc3c2/C=C/c2ccc(F)cc2)cc1,.,-2%,0.5%,.
CN(C)C(=O)NC1C=CS(=O)(=O)C1 (centres undefined),6,1%,-0.7%,1%
O=C(CN(CCCN1CCOCC1)C(=O)Cn1nnc(-c2ccc(F)cc2)n1)NC1CCCCC1,-1,-13%,-0.8%,-6%
CCOc1ccc(N(CC(=O)N/N=C/c2ccccn2)S(=O)(=O)c2ccc(Cl)cc2)cc1,.,1%,?,-1%
CCOC(=O)c1cnc(SC)nc1Oc1cccc(NC(=O)c2ccc(C)cc2)c1,2,0%,-0.6%,-25%
COc1cc(/C=N/n2c(-c3ccccc3)n[nH]c2=S)cc(OC)c1OC,-7,0%,2.2%,15%

# Screens: PubChem BioAssay, National Center for Advancing Translational Sciences (NCATS)
